Screening results: PubChem, Fisher Drug Discovery Resource Center
NPYLR7 agonist: agonists of mosquito NPYLR7 receptor, primary screen, cell-based, Aedes aegypti, calcium fluorescence, mosquito biting behavior. 0.15% of 270,000 active. activation, % at 10 µM. AID 1259423, 2018. HEK293T NPYLR7/Galpha15, GCaMP6s calcium fluorescence. Aedes aegypti neuropeptide Y-like receptor 7 (NPYLR7); in the data active = activation above about 40%;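 also: 0% = vehicle and 100% = reference agonist at the receptor; some compounds past the cut are filed as inactive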
NPYLR7 agonist max-min: further read-out of NPYLR7 agonist, marked with its call; activation, %; measured here: Max-Min RFU normalised activation; some inactives read as strong as hits;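 span of the calcium signal over five minutes; 0% = vehicle and 100% = native peptide agonist; compound fluorescence can raise it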
Numbers without * were called inactive; & = joins results of further samples. This is a subset; rates above refer to the full screens.

SMILES	NPYLR7 agonist	NPYLR7 agonist max-min
CC/C=C/CC(=O)Nc1cccc(C(=O)NC(C)(C)C)c1C	0.9	-0.1
C#CCOCC(O)CN(Cc1ccccc1F)CC1CCCO1 (configuration not stated)	22.8	30.3
CC(=O)OCC(=O)N1CCC(CCc2ccc(-c3ccccc3)cc2)CC1	3.5	-2.2
COc1cc(NC(=O)N(Cc2ccc(OC)c(OS(C)(=O)=O)c2)C(C)C)cc(OC)c1	34.6	32.6
CC(C)n1ccnc1-c1nccn1CCOc1ccccc1	-1.3	-1.7
Cc1ccc(OCCN2CCC2(C)C(=O)N2CCN(C(=O)c3ccco3)CC2)cc1 (configuration not stated)	6.7	2.9
CSCCCN1CCCCC1C(=O)Nc1ccc(Oc2cccnc2)cc1 (configuration not stated)	6.7	3.9
COc1ccc(C(=O)NC(C(=O)NC(C)C(C)C)C2CCN(C(=O)c3ccccc3OC)CC2)cc1 (configuration not stated)	11.1	14.3
COc1ccccc1CN(C)c1nc2ccccc2s1	-0.6	-0.7
OC(CN1CCOCC1)CN(CCc1nc(-c2ccccc2)no1)Cc1ccco1 (configuration not stated)	-7.9	5.1
Cc1nn(CC(=O)NCC(F)(F)F)c(C)c1S(=O)(=O)NC(C)(C)C	8.0	10.9
O=C(CCc1nc2ccccc2[nH]1)N1CCOC2CCCCC21 (configuration not stated)	-17.5	-22.9
COCc1ccc(C(=O)N(CC(F)(F)F)C(C)C(C)C)cc1 (configuration not stated)	-0.6	-2.1
CC1CCN(C(=O)Cn2cc(SCC(N)=O)c3ccccc32)CC1	-4.0	-5.4
CC/C=C(/C)C(=O)NCC1CCS(=O)(=O)C1 (configuration not stated)	-1.5	-3.5
CCOC(=O)c1ccc2c(c1)nc(SCc1ccc(OC(F)F)cc1)n2Cc1ccc(C(F)(F)F)cc1	-7.6	-10.8
Cn1c(=O)n(Cc2ccc(Br)cc2)c(=O)c2c1nc1n2CCCN1Cc1ccco1	2.2	8.4
CCC1CN(S(C)(=O)=O)CCC1NCc1ccc(C(N)=O)cc1 (configuration not stated)	8.6	7.5
CCOc1cc(CNC(=O)c2cccc(CN3CCN(C)CC3)c2)ccn1	0.5	0.2
COc1cccc(C(=O)NCc2nnc(SCc3ccccc3C)n2-c2ccc(C)cc2)c1	-4.3	0.5
O=C(COc1ccccc1)NC1CC(=O)N(Cc2ccccc2C(F)(F)F)C1 (configuration not stated)	7.1	5.3
CNc1cnc(-c2ccc(O)c(OC)c2)cn1	5.3	2.5
CSCC(=O)N1CCc2ccc(NC(=O)C3(c4ccccc4)CC3)cc2C1	4.3	1.6
Cc1ccc(-n2nnnc2SCC(=O)N(C)C)c(C)c1	-1.3	-1.3
CCn1cc(C(=O)N2CCN(Cc3ccccc3)CC2)c2nn(-c3ccccc3)c(=O)c-2c1	3.0	3.1
CC1=C(C(=O)OC(C)C)C(c2cccnc2)n2c(nc3ccccc32)N1 (configuration not stated)	-14.2	-19.6
Cn1c(=O)n(CCN2CCOCC2)c(=O)c2c1nc1n(-c3ccccc3F)c(-c3ccccc3)cn21	1.0	1.6
CSc1ccc(-c2nc(CN3CCc4nc(N)sc4C3)c(C)o2)cc1	-3.0	-3.6
COc1cccc(CC(=O)N2CCOC(COc3ccc(F)cc3)C2)c1 (configuration not stated)	-4.6	-8.7
O=[N+]([O-])c1ccc(F)c(NC2=NCCC2)c1	4.5	1.6
O=C(CSc1nnc(-c2ccc(Cl)cc2)n1-c1ccccc1)N/N=C\C(Br)=C\c1ccccc1	7.8	5.1
COc1ccc([N+](=O)[O-])cc1NC(=O)c1oc2ccccc2c1C	1.1	-1.8
COc1cccc(-c2nc(CN(C)CC3(c4ccccc4)CC3(C)C)c(C)o2)c1OC (configuration not stated)	6.0	1.6
Cc1ccccc1-c1noc(CCC(=O)N(C)Cc2n[nH]c3c2CCC3)n1	0.9	-0.2
O=c1c2c3nc4ccccc4nc3n(CCc3ccccc3)c2ncn1C1CCCC1	1.1	-0.4
Cc1cc(NC2CCN(Cc3ccc(Cl)cc3)CC2)c2ccccc2n1	-4.7	-7.0
Cn1c(C(=O)N2CCCC(Nc3ccc(F)cc3)C2)cc2ccccc21 (configuration not stated)	1.6&16.4	-1.8&16.7
CONC(=O)c1nnn(-c2cccc(C(F)(F)F)c2)c1C1CC1	7.9	2.4
O=C1CCCCC1=CN1CCOCC1	-0.8	14.8
Nc1nc(SCC(=O)N2CCNC2=O)nc2sc3c(c12)CCCCC3	1.3	2.9
COc1ccccc1N1CCN(S(=O)(=O)c2ccccc2)CC1	-8.2	-9.4
CC(C)C(NC(=O)c1cnns1)c1ccc(Cl)cc1 (configuration not stated)	-0.5	-1.6
COCCNc1ccc2ncc(-c3ccc(N)cc3)n2n1	2.4	0.9
CC(C)N(CC1CCC(=O)N1)C(=O)c1cn(C)c2ccccc12 (configuration not stated)	-3.8	-4.6
CSc1nnc2c(n1)OC(c1cccc(Cl)c1)Nc1ccccc1-2 (configuration not stated)	0.1	0.2

Shown as labelled records: part of the list above.
Nc1nc(SCC(=O)N2CCNC2=O)nc2sc3c(c12)CCCCC3
  NPYLR7 agonist: 1.3; NPYLR7 agonist max-min: 2.9
COc1ccccc1N1CCN(S(=O)(=O)c2ccccc2)CC1
  NPYLR7 agonist: -8.2; NPYLR7 agonist max-min: -9.4
CC(C)C(NC(=O)c1cnns1)c1ccc(Cl)cc1 (configuration not stated)
  NPYLR7 agonist: -0.5; NPYLR7 agonist max-min: -1.6
COCCNc1ccc2ncc(-c3ccc(N)cc3)n2n1
  NPYLR7 agonist: 2.4; NPYLR7 agonist max-min: 0.9

The listing continues.
SMILES	NPYLR7 agonist	NPYLR7 agonist max-min
CCOc1ccc(-n2nnnc2CNC(=O)Nc2cccs2)cc1	-6.1	-6.2
COCCC(=O)N(C)c1cc(Cl)cc(Cl)c1	10.2	7.1
CCOc1ccccc1NC(=O)N(CC(=O)N(CCc1c[nH]c2ccccc12)Cc1ccc(OC)c(OC)c1)CC(C)C	31.4	23.9
CCC(=O)c1c(CC)nn2c3ccccc3n(CCN3CCOCC3)c12	25.9	17.1
CC(C)(C)CC(=O)N1CCC2(CC1)C(=O)N(CC(=O)NCc1ccco1)CN2c1ccccc1	18.6	24.0
COc1cc(-c2ccnc(N3CCN(S(=O)(=O)c4ccc(C#N)cc4)CC3)n2)cc(OC)c1OC	-6.3	-8.6
CC1=NC2=C(C(=O)CC(C)(C)C2)C(c2ccc(Cl)cc2)C1C#N (configuration not stated)	4.2	4.6
CCc1nc2ccc(C(=O)NCCc3ccccn3)cn2c1N(C)Cc1cc2ccccc2s1	2.9	-8.0
Cc1c(-c2ccc(Cl)cc2)n[nH]c1C(=O)N1CCC2(CN(C)C(=O)O2)C1 (configuration not stated)	4.6	3.0
Cc1ccc(N2CCCS2(=O)=O)cc1NC(=O)Cc1ccc(Cl)cc1	-2.4	4.9
CCOC(=O)C1CCN(C(c2cccc(C)c2)C2Sc3nc(C)nn3C2=O)CC1 (configuration not stated)	0.1	-1.5
O=C(O)c1ccc(-c2nccn2C2CCN(Cc3ccccn3)CC2)cc1	18.4	9.4
CC(C)(C)c1ccc(O)c(CN2CCC(CN)C2)c1 (configuration not stated)	5.2	4.8
COc1cc(/C=C2/C(=O)N(c3ccc(Cl)c(Cl)c3)N=C2C)ccc1OC(C)=O	-3.4	3.5
Cc1cccc(NC(=O)CCc2n[nH]c(=S)[nH]c2=O)c1	-2.0	-2.4

An excerpt from above in order of SMILES length, rising.
SMILES	NPYLR7 agonist	NPYLR7 agonist max-min
COCCC(=O)N(C)c1cc(Cl)cc(Cl)c1	10.2	7.1
CCOc1ccc(-n2nnnc2CNC(=O)Nc2cccs2)cc1	-6.1	-6.2
COc1cc(/C=C2/C(=O)N(c3ccc(Cl)c(Cl)c3)N=C2C)ccc1OC(C)=O	-3.4	3.5

(listing goes on)
SMILES	NPYLR7 agonist	NPYLR7 agonist max-min
COc1cccc(OCc2ccccc2)c1C(=O)NCCCN1CCOCC1	-6.0	-9.5
CCC(C)c1ccccc1NS(=O)(=O)c1ccc(C#N)cc1 (configuration not stated)	-1.3	0.6
CCc1nc(/C(C#N)=C/c2cn[nH]c2C(C)(C)C)sc1C	6.6	1.8
CN(C)/C=C1\N=C(c2cccc(F)c2)OC1=O	-6.2	-11.9
COc1cccc(-n2nnc3c(=O)n(Cc4ccccc4F)cnc32)c1	9.1	8.5
CCOC(=O)C1C2C=CC3(CN(CCCOC)C(=O)C13)O2 (configuration not stated)	0.4	-1.2
CCC(=O)c1c(N2CCOCC2)nc(C)c2c1CCCC2	-2.0	1.4
CN1CCN(C(=O)c2ccccc2-n2cncn2)CC1C(=O)O (configuration not stated)	4.2	3.2
COCCC(=O)N(CCN1CCCCC1)CC1CCCN(C2CCCC2)C1 (configuration not stated)	1.0	-1.6
CC(=O)N1CCN(C(=O)c2coc(CN(CCN3CCOCC3)Cc3cccc(Oc4ccccc4)c3)n2)CC1	19.5	24.2
O=C(COCc1ccccc1)N1CCN(C(c2ccc(Cl)cc2)c2ccc(Cl)cc2)CC1	-1.4	5.5
CCC(NC(=O)c1ccc2nc(-c3cccc(OC)c3)oc2c1)c1ccncc1 (configuration not stated)	-5.0	-11.4
NC(=O)c1cc(-c2cccc(C(=O)O)c2)cs1	-4.0	1.9
COc1cc(CN(C)C(=O)NC2CCOc3ccccc32)ccc1SC (configuration not stated)	-7.8	-6.3
CCC1=NN(C(=O)Cc2ccc([N+](=O)[O-])cc2)C(O)(C(F)(F)F)C1 (configuration not stated)	3.7	2.3
CC(NC(=O)c1ccccc1N1CCC(NC(=O)c2ccc(Cl)cc2)CC1)c1ccccc1 (configuration not stated)	3.2	1.7
CCOC(=O)c1ccc(OC2CC3CCC(C2)N3C(=O)c2ccc(CSc3ccccc3F)cc2)cc1 (configuration not stated)	24.9	25.0
O=c1c2ccccc2nc(Cc2cccc3ccccc23)n1CCc1ccc(F)cc1	11.0	6.5
CCCCNC(=S)N1CCN(c2ccccc2OCC)CC1	-3.8	-3.0
CCN(CC)c1nc(SC)ncc1CNCc1sccc1C	1.5	14.0
CC(C)(C)n1nc2c(c1NC(=O)Cc1ccccc1)CSC2	-2.8	-4.6
COc1ccc(CN2CCN(Cc3cnc(N)nc3)CC2CCO)c(F)c1 (configuration not stated)	3.0	-1.3
COc1ccc(Cc2nc(CSCc3ccco3)cs2)cc1	22.0	29.9
CCSc1nnc(NC(=O)c2cccc(C(=O)OC)n2)s1	-1.4	-2.2
O=C1CCC2(CCN1)CCN(c1ncccc1Cl)CC2	15.5	11.0
O=C(Cn1cnc2ccccc21)N1CCCC(Nc2ccc3c(c2)OCCO3)C1 (configuration not stated)	2.5	-1.1
Brc1c(Br)c(Br)c2[nH]cnc2c1Br	4.0	-2.2
Cc1cc(NCCC(C)C)n2nc(C)c(-c3ccccc3Cl)c2n1	2.6	-0.1
CN1CCN(c2ccc(NC(=O)c3c4c(nn3C3CCS(=O)(=O)C3)CCC4)cc2)CC1 (configuration not stated)	9.0	4.6
Clc1ccc(-c2nc(NCc3ccco3)c3ccccc3n2)cc1	-2.5	10.4
O=C(Cc1ccc([N+](=O)[O-])cc1)NN=Cc1ccc([N+](=O)[O-])o1	-4.8	-11.6
CCN1C(=O)N(C)C2C1N(C)C(=O)N2CC (configuration not stated)	-0.8	2.1
CCN1N=C(C)Cn2c1nc1c2c(=O)n(CCC(C)C)c(=O)n1C	9.3	14.2
COCCN(Cc1cc(NC(=O)NC(C)C)ccc1N(C)C)C(=O)Nc1cccc(F)c1	27.0	30.3
Cc1cc(OC(=O)CCC2CCCCC2)c([N+](=O)[O-])c(=O)[nH]1	8.8	7.1
CCN(Cc1nccn1Cc1cccc(Cl)c1)C(=O)c1ccco1	19.4	12.1
COC(=O)CC(=O)NC1CCN(c2ccccc2C(=O)N2CCc3ccccc3C2)CC1	0.6	8.3
CCOC(=O)c1c(NC(=O)c2cccc(OC)c2)sc(C(=O)Nc2ccccc2OC)c1C	-6.1	-0.8
Cc1ccc(CCC(=O)N2CCCc3ccc(S(C)(=O)=O)cc32)o1	0.1	-1.4
CCNC(=O)Cn1cnc2c(nnn2CC)c1=O	-0.3	23.0
O=C(Nc1cccc(-c2ccco2)c1)C1CCN(Cc2cccn2-c2ccccn2)CC1	7.9&18.7	1.7&22.3
Nc1ccc(-n2ccc(-c3ccccc3)n2)cn1	13.8	7.8
Cc1cc2ccccc2n1CCC(=O)NCc1snnc1C(C)C	1.5	-1.1
Cc1cccc(-n2ncc3c2ncn2c(-c4cccnc4)nnc32)c1	2.9	2.8
O=C(Nc1ccc2c(c1)OC(F)(F)O2)NC1CCN(Cc2ccccc2)C1 (configuration not stated)	-4.6	-5.5

Brought forward from above: 7 entries; new compounds follow.
SMILES	NPYLR7 agonist	NPYLR7 agonist max-min
Cc1ccc(CCC(=O)N2CCCc3ccc(S(C)(=O)=O)cc32)o1	0.1	-1.4
CCNC(=O)Cn1cnc2c(nnn2CC)c1=O	-0.3	23.0
O=C(Nc1cccc(-c2ccco2)c1)C1CCN(Cc2cccn2-c2ccccn2)CC1	7.9&18.7	1.7&22.3
Nc1ccc(-n2ccc(-c3ccccc3)n2)cn1	13.8	7.8
Cc1cc2ccccc2n1CCC(=O)NCc1snnc1C(C)C	1.5	-1.1
Cc1cccc(-n2ncc3c2ncn2c(-c4cccnc4)nnc32)c1	2.9	2.8
O=C(Nc1ccc2c(c1)OC(F)(F)O2)NC1CCN(Cc2ccccc2)C1 (configuration not stated)	-4.6	-5.5
O=C(c1ccno1)N1CCN(c2nccc(-c3ccc4c(c3)OCO4)n2)CC1	20.9	26.4
CCCCn1c(=O)c2c(nc3n(C(C)C)c(C)cn23)n(C)c1=O	12.1	7.8
Cc1ccc(O)c(C(=O)Nc2cccc(-c3ccnc(C)n3)c2)c1	4.0	3.4
COCCN1CC(O)CN(C(=O)Cc2cccs2)CC1=O (configuration not stated)	0.5	13.5
Cc1ccc(CNc2oc(-c3ccc(S(=O)(=O)N4CCCCCC4)cc3)nc2C#N)cc1	0.2	5.1
